Screens (PubChem BioAssay)
2A Renilla – Primary qHTS Assay for Foot and Mouth Disease Virus Antivirals against NCGC Sytravon and CBC Compound Libraries: Renilla Luciferase Signal; HEK cells with a luciferase reporter of 2A StopGo recoding; Potency, µM (top dose mostly 57.5 µM), for the others: at the highest dose signal change, negative = less light; 120,000 tested, 0.32% active; AID 1745857, 2022; active means well fitted falling curve with a large enough effect; inconclusive means small, poorly fitted or top-dose-only effect; inactive means no such curve, though single readings can be large or run the other way; note: nearly all actives have a fitted effect of over 55% in size; overnight with compound
2A firefly – Primary qHTS Assay for Foot and Mouth Disease Virus Antivirals against NCGC Sytravon and CBC Compound Libraries: Firefly Luciferase Signal; HEK cells with a luciferase reporter of 2A StopGo recoding; Potency, µM (top dose mostly 57.5 µM), for inactives: at the top dose signal change, negative = less light; 120,000 tested, 0.23% active; AID 1745856, 2022; active = well fitted falling curve with a large enough effect; inconclusive = small, poorly fitted or top-dose-only effect; inactive = no such curve, though single readings can be large or run the other way; note: nearly all actives have a fitted effect of over 60% in size; overnight with compound
* = called active by the depositor; ? = inconclusive; & = joins results of further samples; [ ] = another dose, or the depositor's remark. % is set by controls: 0 for no effect and ±100 for the full control effect; potency is the fitted concentration of half-maximal effect.

1) N#C/C(=C/c1ccc(-c2ccccc2C#N)o1)c1ccc(F)cc1
2) CC(=O)N1CCN(C(=O)Cn2c(-c3ccccc3)cc3ccccc32)CC1
3) COc1ccc(-c2cc(C(=O)Oc3ccc(C#N)cc3)no2)cc1
4) COc1ccc(OC)c(NC(=O)c2cnc(Nc3ccc(C)c(Cl)c3)c3ccccc23)c1
5) CC1(C)CC(=O)C2=C(C1)Nc1nc(SCc3ccccc3)nn1C2c1cccs1 (centres undefined)
Assay by compound	1	2	3	4	5
2A Renilla	13%	-7%	5%	-11%&-10%	-7%
2A firefly	0%	-3%	69%[activator]	-10%&-17%	-20%

6) NC(=O)C1CCN(C(=O)C2CCN(S(=O)(=O)Cc3ccc(F)cc3)CC2)CC1
7) COCCOc1nc2c(c(=O)n(C)c(=O)n2C)n1C(C)c1ccccc1 (centres undefined)
8) Cc1c(Cl)cccc1-c1ccc(/C=C(\C#N)c2nc3ccccc3[nH]2)o1
9) CC(Oc1ccc(Cl)cc1Cl)C(=O)Nc1ccc2oc(-c3cccnc3)nc2c1 (centres undefined)
10) Cc1ccc(NC(=O)c2ccc(Cl)cc2N2CCCC2=O)cc1
Assay by compound	6	7	8	9	10
2A Renilla	-10%	-8%	5%&-7%	0%	-4%
2A firefly	-10%	2%	0%&23%	20%	88%[activator]

11) N#Cc1ccc(OCCSc2ccc3c(c2)OCCO3)cc1
12) Cc1ccc(CN2C(=O)CS(=O)c3ccc(C(=O)NCc4ccccc4)cc32)cc1 (centres undefined)
13) O=C(c1ccco1)n1nc(-c2ccccc2)nc1NCc1ccc(Cl)cc1
14) CC1=C(C(=O)Nc2cccnc2)C(c2ccc(F)cc2)n2nc(SCc3ccccc3)nc2N1 (centres undefined)
15) CC1CCCN(c2nc3c(S(=O)(=O)c4ccc(C(C)C)cc4)nnn3c3ccsc23)C1 (centres undefined)
Assay by compound	11	12	13	14	15
2A Renilla	10%	110%[activator]	-9%	-11%	104%&2%[activator]
2A firefly	21%	-13%	-9%	-18%	104%&-23%[activator]

16) CCN(CC(=O)NC(=O)NCC(F)(F)F)Cc1cccc(C)c1
17) O=S(=O)(c1ccc(SCc2nnc(-c3ccccc3)o2)nc1)N1CCCC1
18) Cc1nn(Cc2ccccc2Cl)c(C)c1NC(=O)COCc1cc(-c2ccco2)on1
19) CCCCCc1ccc(-c2ccc(C(=O)O)cc2)cc1
20) COc1ccc(-c2cc(C(F)(F)F)n3nc(C(=O)Nc4sc5c(c4C#N)CCC(C)C5)cc3n2)cc1OC (centres undefined)
Assay by compound	16	17	18	19	20
2A Renilla	10%	?	?	8%	-13%
2A firefly	4%	?	?	0%	-7%

21) COC(=O)CCNC(=O)C1CCN(c2ncnc3sc4c(c23)CCC4)CC1
22) c1ccc(COc2cccc(CNCCc3c[nH]c4ccccc34)c2)cc1
23) O=C(NCc1cccnc1)c1ccc2ccccc2c1
24) COc1ccc(C)cc1NC(c1nnc(-c2ccccc2)o1)c1ccc(F)cc1Cl (centres undefined)
25) Cc1cccc(NC(=O)N2CCN(C3=Nc4ccccc4Oc4ccccc43)CC2)c1C
Assay by compound	21	22	23	24	25
2A Renilla	5%	5%	47%[activator]	17%	-6%
2A firefly	0%	12%	0%	-17%	0%

26) Cn1nc(C(C)(C)C)cc1-c1nn2c(-c3ccco3)nnc2s1
27) CCOC(=O)c1ccc(N2C(=O)Cc3cc(OC)c(OC)cc3C2c2ccc(OC)cc2)cc1 (centres undefined)
28) COc1ccc(N2CCN(C(=O)c3ccc(CS(=O)c4cccc(C)c4)o3)CC2)cc1 (centres undefined)
29) COc1ccc(CNc2nc3c(-c4ccccc4)nnn3c3ccccc23)cc1
30) C=CCn1c(SCCC)nc2c1c(=O)n(C)c(=O)n2C
Assay by compound	26	27	28	29	30
2A Renilla	20%	20%	2%	2%	-4%
2A firefly	24%	-9%	5%	166%[activator]	2%

31) CN(Cc1ccc2c(c1)OCCO2)Cc1ncc(C(C)(C)C)o1
32) O=C(Cc1ccc(F)cc1)N1CCC(c2nc3c(nnn3Cc3ccc(F)cc3)c(=O)[nH]2)CC1
33) COc1cccc(NC(=O)CC(C)(C(=O)O)c2ccccc2)c1 (centres undefined)
34) Cc1nc2ccc(S(=O)(=O)N(CC(=O)N3CCC(C)CC3)Cc3ccccc3)cc2s1
35) O=C(O)c1cc(Br)c(Cl)[nH]1
Assay by compound	31	32	33	34	35
2A Renilla	3%	-6%	-1%	102%[activator]	53%
2A firefly	19%	-10%	43%[activator]	1%	0%

36) Cc1ccc2nc(C)c(C(=O)NCc3ccc(N4CCCCCC4)nc3)cc2c1
37) CS(=O)(=O)c1ccc(OCC(=O)c2ccc(F)cc2)cc1
38) Cc1cc(C(C)(C)C)cc(C)c1Cn1c(Cl)nc2c1c(=O)n(C)c(=O)n2C
39) CCc1ccccc1NC(=O)N1CCCn2nc(C)cc21
40) O=C(C1CCCN(S(=O)(=O)c2cccc3nsnc23)C1)N1CCN(c2ccccc2)CC1 (centres undefined)
Assay by compound	36	37	38	39	40
2A Renilla	?	14%	-8%	34%[activator]	?
2A firefly	?	76%[activator]	-12%	12%	?

Record cards, from the list above. Order of screens: 2A Renilla | 2A firefly
Profile of `CC1CCCN(c2nc3c(S(=O)(=O)c4ccc(C(C)C)cc4)nnn3c3ccsc23)C1` (centres undefined) : 104%&2%[activator] | 104%&-23%[activator]
Profile of `O=C(C1CCCN(S(=O)(=O)c2cccc3nsnc23)C1)N1CCN(c2ccccc2)CC1` (centres undefined) : ? | ?

As entered above.
2A firefly, `CCN(CC(=O)NC(=O)NCC(F)(F)F)Cc1cccc(C)c1` reads 4%
2A firefly, `O=C(NCc1cccnc1)c1ccc2ccccc2c1` reads 0%

Other results
41) CCc1ccccc1NC(=O)Cn1c(=O)n(-c2ccccc2)c(=O)c2oc3ccccc3c21
42) Cc1cc(N2CCN(c3ccccc3)CC2)nc(NCc2ccccc2)n1
43) O=c1[nH]c(CN2CCCCCCC2)nc2ccsc12
44) COC(=O)c1ccc(NC(=O)CCc2c(C)nc3c(-c4ccccc4)c(C)nn3c2C)cc1
45) COC(=O)C(=O)CC(=O)c1ccc(C)s1
Assay by compound	41	42	43	44	45
2A Renilla	-10%	-2%	-9%	-1%	13%
2A firefly	-9%	5%	-3%	9%	24%

46) CCCOc1nc2ccccc2nc1N1CCC(C(=O)Nc2ccc(C(N)=O)cc2)CC1
47) CCCc1ccc(OC(C)c2nc(-c3ccc(-n4cccc4)cc3)no2)cc1 (centres undefined)
48) Cc1ccc2c(c1)N(C(=O)CCC(=O)NCc1ccccc1Cl)CC(C)O2 (centres undefined)
49) O=C(O)c1cccc(NCc2ccc(Cl)cc2)c1
50) CCOC(=O)C1CCN(C(=O)c2cc3cc(OCC)ccc3n2C)CC1
Assay by compound	46	47	48	49	50
2A Renilla	-5%	-14%	1%	-10%[1.06 µM]	-4%
2A firefly	1%	-9%	1%	94%[activator]	46%[activator]

51) CCOC(=O)CSc1nc2c(c(=O)[nH]c(=O)n2C)n1C
52) N#Cc1c2n(c(=O)n(CCOc3cccc(F)c3)c1=O)CCC2
53) Cc1ncc(CO)c2cc(-c3nc(-c4ccccc4F)no3)c(=O)oc12
54) CC1CCCCC1NC(=O)CCC1CCCO1 (centres undefined)
55) CC(CCN1CCC(C(O)(c2ccccc2)c2ccccc2)CC1)Oc1cc(F)cc(F)c1 (centres undefined)
Assay by compound	51	52	53	54	55
2A Renilla	1%	21%	13%	5%	-1%
2A firefly	0%	59%[activator]	120%[activator]	7%	0%

Six entries from above in another layout:
No. | SMILES | 2A Renilla | 2A firefly
15 | CC1CCCN(c2nc3c(S(=O)(=O)c4ccc(C(C)C)cc4)nnn3c3ccsc23)C1 (centres undefined) | 104%&2%[activator] | 104%&-23%[activator]
48 | Cc1ccc2c(c1)N(C(=O)CCC(=O)NCc1ccccc1Cl)CC(C)O2 (centres undefined) | 1% | 1%
20 | COc1ccc(-c2cc(C(F)(F)F)n3nc(C(=O)Nc4sc5c(c4C#N)CCC(C)C5)cc3n2)cc1OC (centres undefined) | -13% | -7%
40 | O=C(C1CCCN(S(=O)(=O)c2cccc3nsnc23)C1)N1CCN(c2ccccc2)CC1 (centres undefined) | ? | ?
27 | CCOC(=O)c1ccc(N2C(=O)Cc3cc(OC)c(OC)cc3C2c2ccc(OC)cc2)cc1 (centres undefined) | 20% | -9%
26 | Cn1nc(C(C)(C)C)cc1-c1nn2c(-c3ccco3)nnc2s1 | 20% | 24%

The results go on:
56) CC(=O)Nc1ccc(-c2csc(NC(=O)c3cc4cnn(C(C)C)c4nc3C)n2)cc1
57) S=C(Nc1ccc(Br)cc1)N(Cc1ccccc1)Cc1ccccc1
58) O=C(c1ccc2c(c1)CCN2S(=O)(=O)c1ccc(Cl)cc1)N1CCCC1
59) CC(C)c1ccc(C(=O)NN)cc1
60) O=C(O)c1cccc2[nH]cnc12
Assay by compound	56	57	58	59	60
2A Renilla	?	?	-8%	17%	-6%
2A firefly	?	-12%	?	188%[activator]	-9%

61) CC(=O)Nc1ccc(NC(=O)C2CCN(c3c(NC(C)=O)c(C)nn3-c3ccccc3)CC2)cc1
62) Cc1ccc2oc3c(c(=O)c2c1)C(c1cccc(O)c1)N(CCCN1CCOCC1)C3=O (centres undefined)
63) Fc1ccc(CN2CCc3nc(N4CCN(c5ccccc5F)CC4)ncc3C2)c(F)c1
64) Cc1ccc(C(=O)N/N=C/c2ccccc2)s1
65) COc1ccc(OCC(=O)Nc2cc(OC)ccc2OC)cc1
Assay by compound	61	62	63	64	65
2A Renilla	5%	-1%	6%	37%[activator]	4%
2A firefly	7%	-13%	15%	0%	37%[activator]

66) O=C(Cc1ccc(Cl)cc1)Nc1ccc2oc(-c3ccccc3)nc2c1
67) Cc1ccc(C(=O)NNC(=O)CNS(=O)(=O)/C=C/c2ccccc2)cc1
68) CC(C)NC(=O)CSc1nnc(COc2ccccc2Cl)o1
69) CN1CCc2c(C#N)c(NCc3ccccn3)n3cnnc3c2C1
70) Cc1ccc(N(C)C(=O)C2CCN(S(=O)(=O)c3ccc4c(c3)CCCN4C(=O)C3CCC3)CC2)cc1
Assay by compound	66	67	68	69	70
2A Renilla	11%&13%	4%	6%	-7%	-2%
2A firefly	0%&-6%	3%	3%	5%	-17%

Screen by screen, as entered above.
2A firefly, entries 8–17, in order: 0%&23%, 20%, 88%[activator], 21%, -13%, -9%, -18%, 104%&-23%[activator], 4%, ?
2A Renilla, entries 8–17, in order: 5%&-7%, 0%, -4%, 10%, 110%[activator], -9%, -11%, 104%&2%[activator], 10%, ?

(list continues)
71) CCOC(=O)C(C)Oc1ccc2c(=O)c(Oc3ccc(OCC)cc3)c(C)oc2c1 (centres undefined)
72) Cc1ccc(N2C(=O)c3n[nH]c(C)c3C2c2ccc(Cl)cc2)cc1 (centres undefined)
73) Cc1ccccc1C(=O)NC1(C(F)(F)F)C(=O)Nc2c1c(=O)[nH]c(=O)n2CCc1ccccc1 (centres undefined)
74) Cc1ccccc1NC(=O)CSc1nc2ccccc2o1
75) CCCc1nc(C#N)c(N2CCN(c3ccccc3)CC2)o1
Assay by compound	71	72	73	74	75
2A Renilla	-12%	13%	-6%	17%	1%
2A firefly	-6%	218%[activator]	-2%	7%	11%

76) CN(Cc1ccsc1)C(=O)c1cccc(C(=O)N(C)Cc2ccsc2)n1
77) COc1ccc(NC(=O)Nc2ccccc2OCc2cc(=O)n3ccccc3n2)c(OC)c1
78) CCOc1ccccc1CNC(=O)c1ccc2c(c1)sc1nc(-c3cccc(OC)c3)cn12
79) Cc1ccc(-n2ncc3c(NC4CCCCC4)ncnc32)cc1
80) CCCNC(=O)C1CCN(c2ncnc3onc(-c4ccc(C)cc4)c23)CC1
Assay by compound	76	77	78	79	80
2A Renilla	65%[activator]	-10%	-24%	-7%	15%
2A firefly	-5%	-7%	36%[activator]	97%[activator]	3%

81) COC(=O)c1sccc1S(=O)(=O)Nc1ccc(OC)cc1
82) O=S(Cc1cccc(F)c1)Cc1coc(-c2cccc(F)c2)n1 (centres undefined)
83) CC(=O)Nc1ccc(S(=O)(=O)N(C)CC(=O)Nc2ccc(-c3ccccc3)cc2)cc1
84) CC(=O)c1ccc(NC(=O)CSc2c(C(C)C)cnc3c2c(=O)n(C)c(=O)n3C)cc1
85) CCCCCC1/C(=N/O)CCC1CC(=O)OC (centres undefined)
86) CCC(CC)NC(=O)COC(=O)/C=C/c1cccc2cccnc12
87) N#C/C(=C\c1c2ccccc2cc2ccccc12)c1ccc([N+](=O)[O-])cc1
88) CC1CCN(C(=O)C2CCN(S(=O)(=O)Cc3c(F)cccc3Cl)CC2)CC1
Assay by compound	81	82	83	84	85	86	87	88
2A Renilla	102%[activator]	17%	28%	2%	4%	-3%	33%	-4%
2A firefly	3%	17%	0%	-11%	-10%	-3%	3%	-5%

Not all compounds are listed. The share of hits here may be higher or lower than overall.
